# ID4 SMM = ID4 (human) binding. small molecule microarray, Flag-ID4 binding, fluorescence F/B. hit rate 1.2% among 31,000. calls only. AID 624137. P47928;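 active = spot signal over background at p below 0.07 in all four prints; compounds were printed on slides so no solution concentration is given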;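 also: a binder raises fluorescence above local background on the spot; about 2 pmol printed per array spot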
# Target sequence (P47928 whole entry, looked up): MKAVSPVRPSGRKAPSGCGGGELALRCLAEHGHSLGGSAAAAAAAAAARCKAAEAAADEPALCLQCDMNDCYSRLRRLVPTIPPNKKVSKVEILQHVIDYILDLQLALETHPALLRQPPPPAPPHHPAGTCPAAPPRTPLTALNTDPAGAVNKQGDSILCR
# Calls only; i = inactive; + = active, no number.
# The opening 3 records (preview)
Structure | ID4 SMM
O=C(N[C@H]1C=C[C@@H](CC(=O)N2CCC(Cc3ccccc3)CC2)O[C@@H]1CO)c1cnccn1 | i
C/C=C/c1cnc2c(c1)C(=O)N([C@@H](C)CO)C[C@@H](C)[C@H](CN(C)C(=O)C1CCC1)O2 | i
Cc1cc([N+](=O)[O-])nn1CC(=O)NC(C)C | i

# The list itself, previewed entries included:
Structure | ID4 SMM
O=C(N[C@H]1C=C[C@@H](CC(=O)N2CCC(Cc3ccccc3)CC2)O[C@@H]1CO)c1cnccn1 | i
C/C=C/c1cnc2c(c1)C(=O)N([C@@H](C)CO)C[C@@H](C)[C@H](CN(C)C(=O)C1CCC1)O2 | i
Cc1cc([N+](=O)[O-])nn1CC(=O)NC(C)C | i
C[C@@H]1CN([C@H](C)CO)C(=O)c2cc(-c3ccccc3F)cnc2O[C@H]1CN(C)Cc1ccccc1F | i
COc1cccc(-c2cnc3c(c2)C(=O)N([C@H](C)CO)C[C@H](C)[C@H](CN(C)Cc2cccnc2)O3)c1 | i
O=C(C[C@H]1C[C@@H]2c3cc(NC(=O)Nc4ccc(C(F)(F)F)cc4)ccc3O[C@@H]2[C@@H](CO)O1)NCc1ccc2c(c1)OCO2 | i
Cc1cccc2c(C(=O)NCCN3CCOCC3)cc(-c3ccccc3Cl)nc12 | i
COc1ccc(S(=O)(=O)N(C)CC(N)=O)cc1Cl | i
O=C(NC1CCCCC1)N[C@H]1CC[C@@H](CC(=O)N2CCOCC2)O[C@@H]1CO | i
CC(NS(=O)(=O)c1ccc(Cl)cc1)C(=O)Nc1ccc(Oc2ccccc2)cc1 (configuration not stated) | i
O=C(N[C@@H]1CC[C@@H](CC(=O)N2CCc3ccccc3C2)O[C@@H]1CO)C1CC1 | i
C[C@H]1CN([C@@H](C)CO)S(=O)(=O)c2ccc(C#Cc3ccccc3)cc2O[C@H]1CN(C)C(=O)CN(C)C | i
C[C@@H]1CN([C@H](C)CO)C(=O)c2cc(C#Cc3ccccc3F)cnc2O[C@@H]1CN(C)C | i
Cc1cc2ncn(CC(O)COc3ccccc3Cl)c2cc1C (configuration not stated) | i
C[C@H](O)C#Cc1cnc2c(c1)C(=O)N([C@@H](C)CO)C[C@@H](C)[C@H](CN(C)Cc1cccc(C(=O)O)c1)O2 | i
Cc1noc(C)c1CSc1nc2ccccc2[nH]1 | i
COc1ccccc1NC(=O)CC(C(=O)O)N(C)C (configuration not stated) | i
CCCNC(=O)N(C)C[C@H]1Oc2cc(C#CC3CC3)ccc2S(=O)(=O)N([C@H](C)CO)C[C@H]1C | i
C[C@@H]1CN([C@@H](C)CO)C(=O)c2cc(C#Cc3cccc(F)c3)cnc2O[C@@H]1CN(C)CC1CCCC1 | i
Cc1cc(C)cc(N(C(C)C(=O)Nc2cccc3ccccc23)S(C)(=O)=O)c1 (configuration not stated) | i
COCC(=O)N1[C@H](CO)[C@H](c2ccc(C#CCC3CCCC3)cc2)[C@@H]1C#N | i
CC(=O)c1cccc(NC(=O)C(C)NS(=O)(=O)c2ccc(Cl)cc2)c1 (configuration not stated) | i
CCCC#Cc1cnc2c(c1)C(=O)N([C@@H](C)CO)C[C@H](C)[C@@H](CN(C)C(=O)C1CCC1)O2 | i
COc1ccc(-c2cnc3c(c2)C(=O)N([C@@H](C)CO)C[C@@H](C)[C@@H](CN(C)C(=O)C2CCCCC2)O3)cc1 | i
O=C(COc1ccc2ccccc2c1Br)NCCN1CCOCC1 | i
Cc1c(NC(=O)CNS(=O)(=O)c2ccc(Br)cc2)c(=O)n(-c2ccccc2)n1C | i
C[C@H](CO)N1C[C@H](C)[C@H](CN(C)S(=O)(=O)c2ccccc2F)Oc2ncc(/C=C/c3ccccc3)cc2C1=O | i
CCOC(=O)C1=C(C)N(c2nonc2NC(C)=O)C(N)=C(C#N)C1c1ccc(Br)cc1 (configuration not stated) | i
Cc1ccc(F)c(NC(=O)CSc2nnc(-c3ccccc3)n2C)c1 | i
CCc1ccc(-n2nc3cc(C)c(NC(=O)COc4ccccc4[N+](=O)[O-])cc3n2)cc1 | i
Cc1ccc(C(=O)CSc2nc3ccccc3o2)cc1[N+](=O)[O-] | i
Cc1cc(-c2nn(C)c(=O)c3ccccc23)cc(C)c1OCC(=O)NN | i
COc1cccc(C(=O)Nc2cccc(OCC(=O)c3ccccc3)c2)c1 | i
CN(CC(=O)Nc1ccccc1Sc1ccccc1)S(=O)(=O)c1ccc(F)cc1 | i
COc1ccc2ccc(=O)oc2c1CC(O)C(C)(C)OC (configuration not stated) | i
C[C@@H]1CCCCO[C@@H](CN(C)CC2CC2)[C@@H](C)CN([C@H](C)CO)C(=O)c2cc(N(C)C)ccc2O1 | i
O=C(NCCN1CCOCC1)c1cccc(S(=O)(=O)N2CCCCC2)c1 | i
COc1ccc(-c2nn(C)c(=O)c3ccccc23)cc1NC(=O)COc1ccc(C)cc1 | i
C[C@H](O)C#Cc1cnc2c(c1)C(=O)N([C@@H](C)CO)C[C@H](C)[C@@H](CN(C)CC1CCCC1)O2 | i
C[C@@H]1CN([C@H](C)CO)C(=O)c2cc(C#CCc3ccccc3)cnc2O[C@@H]1CN(C)Cc1cccnc1 | i
COc1ccc(OC)c(S(=O)(=O)N2CCC(C(=O)Nc3ccc(OC)c(Cl)c3)CC2)c1 | i
O=C(COc1ccc(Br)cc1)Nc1ccc2nn(-c3ccc(F)cc3)nc2c1 | i
C[C@H]1CN([C@@H](C)CO)C(=O)c2cc(C#CC3CC3)cnc2O[C@@H]1CN(C)C(=O)Nc1ccccc1 | i
CNC[C@H]1Oc2cc(C#CC3CCCC3)ccc2S(=O)(=O)N([C@H](C)CO)C[C@@H]1C | i
C[C@@H]1C[C@H]2[C@@H]3CCC4=CC(=O)C=C[C@]4(C)[C@@]3(F)[C@@H](O)C[C@]2(C)[C@@]1(O)C(=O)CO | i
Nc1nc(SCC(=O)N2CCc3ccccc32)n[nH]1 | i
CC(C)C#Cc1cnc2c(c1)C(=O)N([C@H](C)CO)C[C@@H](C)[C@@H](CN(C)C(=O)c1cccc(F)c1)O2 | i
CCC(=O)N[C@H]1C=C[C@@H](CC(=O)NCc2cc(F)cc(F)c2)O[C@@H]1CO | i
CCc1ccc2oc(-c3cc(NC(=O)COc4ccc(OC)cc4)ccc3Cl)nc2c1 | i
CNC[C@@H]1Oc2cc(C#CC3CCCCC3)ccc2S(=O)(=O)N([C@H](C)CO)C[C@H]1C | i
N#Cc1ccccc1NC(=O)CCCN1C(=O)c2ccccc2C1=O | i
CC(C)C#Cc1ccc2c(c1)O[C@@H](CN(C)C)[C@H](C)CN([C@H](C)CO)S2(=O)=O | i
O=C(Nc1ccccc1C(=O)NCCOc1ccccc1)c1ccc(Cl)cc1 | i
O=C(C[C@H]1C=C[C@H](NC(=O)Nc2ccccc2F)[C@@H](CO)O1)NCc1ccc(F)cc1 | i
O=C(Cn1c(C(F)(F)F)nc2ccccc21)NCCN1CCCC1 | i
CC(=O)Nc1nonc1-c1nc2ccccc2n1Cc1ccccc1Br | i
Cc1cc(=O)n2c3ccccc3n(CC(O)Cn3ccnc3)c2c1C#N (configuration not stated) | i
C[C@@H]1CN([C@@H](C)CO)S(=O)(=O)c2ccc(C3=CCCCC3)cc2O[C@H]1CN(C)C(=O)C1CCCCC1 | i
C[C@@H]1CN([C@H](C)CO)C(=O)c2cc(C3=CCCC3)cnc2O[C@@H]1CN(C)C(=O)c1ccc(F)cc1 | i
O=C(C[C@H]1CC[C@@H](NC(=O)C2CC2)[C@@H](CO)O1)NCc1ccccc1Cl | i

# Entries from the list above with bromine (five):
Structure | ID4 SMM
O=C(COc1ccc2ccccc2c1Br)NCCN1CCOCC1 | i
Cc1c(NC(=O)CNS(=O)(=O)c2ccc(Br)cc2)c(=O)n(-c2ccccc2)n1C | i
CCOC(=O)C1=C(C)N(c2nonc2NC(C)=O)C(N)=C(C#N)C1c1ccc(Br)cc1 (configuration not stated) | i
O=C(COc1ccc(Br)cc1)Nc1ccc2nn(-c3ccc(F)cc3)nc2c1 | i
CC(=O)Nc1nonc1-c1nc2ccccc2n1Cc1ccccc1Br | i

# Other entries follow.
Structure | ID4 SMM
C[C@H](CO)N1C[C@H](C)[C@H](CN(C)CC2CC2)Oc2ccc(NC(=O)C3CCCCC3)cc2CC1=O | i
CN(C)C(=O)[C@]1(CCS(=O)(=O)c2ccccc2)N=C(c2ccc(OCCCO)cc2)O[C@@H]1c1ccccc1 | +
C[C@H]1CN([C@@H](C)CO)C(=O)c2cc(-c3ccc(F)cc3)cnc2O[C@H]1CN(C)C(=O)C1CCC1 | i
COc1ccc(-c2ccc3c(c2)O[C@H](CN(C)Cc2ccccc2C(=O)O)[C@@H](C)CN([C@@H](C)CO)S3(=O)=O)cc1 | i
COc1cccc(S(=O)(=O)Nc2ccc3c(c2)[C@H]2C[C@@H](CC(=O)NCc4ccccc4F)O[C@H](CO)[C@H]2O3)c1 | i
Cc1ccc(NC(=O)CCC(=O)c2ccc(Oc3ccccc3)cc2)cc1 | i
COc1ccc(Cl)cc1N(CC(=O)Nc1ccccc1C(F)(F)F)S(C)(=O)=O | i
c1ccc(Cn2c3ccccc3c3nnc(SCc4ccc5nonc5c4)nc32)cc1 | i
N#Cc1ccc(NC(=O)Cn2ccc([N+](=O)[O-])n2)cc1 | i
COc1ccccc1NC(=O)N[C@H]1C=C[C@@H](CC(=O)N[C@@H](C)c2ccccc2)O[C@H]1CO | i
CC(C)CC#Cc1ccc2c(c1)O[C@H](CN(C)CC1CC1)[C@H](C)CN([C@@H](C)CO)S2(=O)=O | i
Cc1ccc(N(Cc2cc3ccccc3[nH]c2=O)C(=O)c2cccnc2)cc1 | i
C[C@@H](NC(=O)C[C@H]1C=C[C@H](NC(=O)Cc2ccccn2)[C@@H](CO)O1)c1ccccc1 | i
Cc1ccc2nc(-c3ccc(NC(=O)[C@@H]4CCCC[C@@H]4C(=O)O)cc3)sc2c1 | i
CCCN(C)C[C@H]1Oc2cc(-c3cccc(C#N)c3)ccc2S(=O)(=O)N([C@H](C)CO)C[C@H]1C | i
COc1ccc(CCNC(=O)c2nc3ncccn3n2)cc1OC | i
O=C(C[C@@H]1CC[C@@H](NC(=O)c2cccnc2)[C@@H](CO)O1)NCc1ccc(Cl)c(Cl)c1 | i
COc1ccc(NC(=O)Nc2ccc3c(c2)[C@@H]2C[C@@H](CC(=O)N4CCN(C)CC4)O[C@@H](CO)[C@@H]2O3)cc1 | i
Cc1c(NC(=S)NC(=O)COc2ccccc2)cccc1-c1nc2ccccc2s1 | i
COc1ccccc1NC(=O)C1=C(C)Nc2ncnn2C1c1cc(Br)c(O)c(OC)c1 (configuration not stated) | i
NS(=O)(=O)c1ccc(NC(=O)CSc2nnc(-c3ccccc3F)n2-c2ccccc2)cc1 | i
O=[N+]([O-])c1ccccc1S(=O)(=O)Nc1cccnc1 | i
COC(=O)c1ccccc1NC(=O)c1ccc(NC(=O)C2CCCO2)cc1 (configuration not stated) | i
CCOC(=O)c1cc(CSc2n[nH]c(=O)n2-c2ccccc2)nn1C(C)(C)C | i
O=C(CSc1nnc(-c2ccncc2)n1-c1ccccc1)Nc1ccc(OC(F)(F)F)cc1 | i
Clc1cc(Cl)cc(OCc2nn[nH]n2)c1 | i
N#Cc1ccc(NC(=O)c2ccc(Br)o2)cc1 | i
NS(=O)(=O)c1ccc(CNC(=O)c2cc(-c3ccccn3)nc3ccc(Cl)cc23)cc1 | i
O=c1cc(CSc2nnnn2-c2ccccc2)nc2nc[nH]n12 | i
O=C(C[C@@H]1C=C[C@H](NS(=O)(=O)c2cccc(F)c2)[C@H](CO)O1)N1CCCCC1 | i
O=C(CCN1C(=O)C2C3C=CC(C3)C2C1=O)Oc1cccc2cccnc12 (configuration not stated) | i
Cc1cc(N(CC(=O)Nc2ccccc2-c2ccccc2)S(C)(=O)=O)ccc1Br | i
C[C@@H]1CN([C@@H](C)CO)S(=O)(=O)c2ccc(C3=CCCC3)cc2O[C@H]1CN(C)Cc1ccccc1 | i
COc1cc(C(=O)Nc2ccc(OCC(=O)O)cc2)cc(OC)c1OC | i
Cc1cc(Cl)cc(Cl)c1OCC(=O)Nc1ccc(Cl)c(-c2nc3ncccc3o2)c1 | i
CC(=O)N(C)C[C@@H]1Oc2ncc(-c3ccccc3F)cc2C(=O)N([C@@H](C)CO)C[C@H]1C | i
Cc1[nH]c2ccccc2c1C(=O)CSc1nc(-c2ccccc2)cs1 | i
CO[C@H](CN(C)Cc1nccs1)[C@@H](C)CN([C@@H](C)CO)S(=O)(=O)c1ccc(C)cc1 | i
Cn1c(SCC(=O)n2c3c(c4ccccc42)CCCC3)nnc1-c1ccco1 | i
N#CCN(CC#N)C(=O)C(Sc1ccccc1)c1ccccc1 (configuration not stated) | i
C/C=C/c1ccc2c(c1)O[C@H](CN(C)CC1CCOCC1)[C@H](C)CN([C@@H](C)CO)S2(=O)=O | i
C[C@@H]1CN([C@H](C)CO)C(=O)c2cc(C#CC3CCCC3)cnc2O[C@@H]1CN(C)Cc1ccncc1 | i
COC1=CC(=O)OC12CCCCC2 | i
c1ccc2sc(SCc3nc4c5c6c(sc5ncn4n3)CCCC6)nc2c1 | i
CN1CCC(=C2c3ccccc3C=Cc3ccccc32)CC1 | i
C[C@H]1CN([C@@H](C)CO)C(=O)c2cc(/C=C/c3ccccc3)cnc2O[C@H]1CN(C)Cc1ccccc1 | i
N#Cc1c(NC(=O)CSc2ncn[nH]2)sc2c1CCCCC2 | i
COc1ccccc1-c1ccc2c(c1)O[C@@H](CN(C)C(=O)c1cccnc1)[C@@H](C)CN([C@@H](C)CO)S2(=O)=O | i
CCCc1cc(=O)[nH]c(SCC(=O)Nc2ccccc2C)n1 | i
CC[N+](CC)(CC)CC(=O)Nc1c(C)cccc1C | i

# Screening results deposited in PubChem by Broad Institute.

# These rows are one share of the data; the hit share may differ from the screen's.
